CSC inhib: blocks cancer stem cells; cancer stem cell-like cells viability, luminescence; inhibition, % at 7.5 µM; 300,000 compounds, 1.1% hits;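 active means mean at 75% or more and at least half the replicates too; inconclusive means mean and replicates disagree; tested in HMLE shEcad cells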;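 further: 0% = median of negative and 100% = median of positive control wells; the first replicate is given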
MT1-MMP act inh: inhibitors of human MT1-MMP activation. P50281. HT1080 RFP-PRO-GFP cells, GFP/RFP ratio fluorescence, overnight; percent of plate control window, DMSO zero. GFP/RFP ratio change, % at 20 µM. 360,000 compounds, 0.061% hits. AID 651647;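 active means GFP/RFP ratio change of at least 30% with cell ATP level not reduced by more than half and red fluorescence within 50% of control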; further: strong numbers were not always called active
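Assay system: HT1080 cells carrying an RFP-PRO-GFP reporter | Dosing: Single dose of 20 µM compound, 1% DMSO final | Incubation: Cells overnight before dosing, compound overnight, 37 °C, 5% CO2 | Evaluation: GFP/RFP fluorescence ratio | Control set: DMSO and RFP-L50D-GFP cell wells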
HIV Env fusion: inhibitors of HIV Env-mediated cell fusion; HeLa-JRFL Env/CEM21 cell fusion, luciferase; inhibition, % at 12.3 µM; 360,000 compounds, 1.1% hits;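 active means mean replicate inhibition score of at least 50 and every replicate individually at or above 50; inconclusive means only one of the two criteria met; inactive means mean below 50 and not all replicates reaching 50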;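 further: 0% = plate neutral controls and 100% = maraviroc near 300 nM; one replicate is shown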
Rce1 inhib: blocks yeast Ras-converting enzyme | Q03530 | yeast membranes, quenched prenylated peptide cleavage fluorescence | calls only | 290,000 compounds, 0.27% hits | AID 2563;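 active means fall in fluorescence gain of 50% or more versus controls, with final raw signal at or below 3038400; inconclusive means same 50% fall but final raw signal above 3038400; inactive means fall in fluorescence gain under 50%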;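 further: plate controls were neutral control wells for no effect and wells lacking membranes for full effect; tested at 10 µM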
Target sequence (Q03530 whole entry, looked up): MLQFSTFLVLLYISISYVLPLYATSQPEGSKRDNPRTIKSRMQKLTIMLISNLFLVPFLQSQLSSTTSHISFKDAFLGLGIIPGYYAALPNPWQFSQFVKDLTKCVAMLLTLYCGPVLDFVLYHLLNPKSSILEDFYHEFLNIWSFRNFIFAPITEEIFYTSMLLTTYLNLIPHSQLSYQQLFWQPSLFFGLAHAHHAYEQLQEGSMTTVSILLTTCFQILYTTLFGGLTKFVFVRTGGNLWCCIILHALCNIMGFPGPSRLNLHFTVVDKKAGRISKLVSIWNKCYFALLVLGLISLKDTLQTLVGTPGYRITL
eIF4H FP inh: inhibitors of RNA binding by human eIF4H; Q15056; eIF4H fluorescence polarization binding assay; inhibition, % at 35 µM; 290,000 compounds, 0.94% hits; AID 2012;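 active means 50% or more with normal probe brightness, or confirmed in later tests; inconclusive means above 50% with abnormal brightness, or retests that disagree; inactive means below 50% or failed in later tests; about a fifth of its hits are not listed in these tables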;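 further: calls also rest on retests at 20 µM and on dose response follow-up; 0% = protein and probe with vehicle and 100% = probe without protein; strong numbers were not always called active; many hits fall short of the cut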
Yeast UUG start: yeast start codon fidelity modulation | S. cerevisiae UUG-firefly luciferase reporter, luminescence/redox ratio | activity score, % at 18.7 µM | AID 602363 | 350,000 compounds, 0.13% hits;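 active means replicate mean at a twofold rise or more, about +100% in these data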;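 further: firefly luciferase made from a UUG start codon reports start codon fidelity; reporter light over untreated wells divided by growth signal over untreated wells; some hits fall short of that in this replicate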
PABP FP inh: blocks human PABP binding to poly(A) RNA; 290,000 compounds, 1% hits; inhibition, % at 35 µM; P11940; fluorescence polarization;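 active means 50% or more with normal probe brightness, or confirmed in later tests; inconclusive means above 50% with abnormal brightness, or retests that disagree; inactive means below 50% or failed in later tests; about a fifth of its hits are not listed in these tables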;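 further: calls also rest on retests at 20 µM and on dose response follow-up; controls were probe without protein and protein plus probe with vehicle; some compounds called inactive have numbers as strong as hits; many hits fall short of the cut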
Target sequence (P11940 whole entry, looked up): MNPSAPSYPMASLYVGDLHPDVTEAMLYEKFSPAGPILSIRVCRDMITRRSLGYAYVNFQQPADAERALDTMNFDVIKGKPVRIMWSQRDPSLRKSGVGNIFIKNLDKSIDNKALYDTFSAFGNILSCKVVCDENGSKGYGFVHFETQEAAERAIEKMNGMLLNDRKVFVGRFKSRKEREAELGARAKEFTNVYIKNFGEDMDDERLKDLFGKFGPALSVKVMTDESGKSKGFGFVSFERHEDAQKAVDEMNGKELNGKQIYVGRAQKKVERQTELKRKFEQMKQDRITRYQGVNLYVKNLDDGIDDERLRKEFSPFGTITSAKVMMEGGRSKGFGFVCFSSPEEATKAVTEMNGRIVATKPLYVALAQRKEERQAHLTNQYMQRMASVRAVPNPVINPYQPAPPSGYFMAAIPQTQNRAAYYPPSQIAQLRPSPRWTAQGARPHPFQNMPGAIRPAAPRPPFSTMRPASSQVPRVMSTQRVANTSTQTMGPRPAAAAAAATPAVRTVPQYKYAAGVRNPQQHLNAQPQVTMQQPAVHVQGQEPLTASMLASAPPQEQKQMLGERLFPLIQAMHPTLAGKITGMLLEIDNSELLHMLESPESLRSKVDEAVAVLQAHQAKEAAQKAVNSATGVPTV
MT1-MMP act inh RFP: also measured in MT1-MMP act inh; calls as there; RFP signal change, %; measured here: RFP expression control read;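 0 = vehicle wells; hits needed this value within 50% of zero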
* marks the source's active call; other numbers are inactive results; i = inactive; ? = inconclusive; · = not tested or not shown.

SMILES	CSC inhib	MT1-MMP act inh	MT1-MMP act inh RFP	HIV Env fusion	Rce1 inhib	eIF4H FP inh	Yeast UUG start	PABP FP inh
CN1OC[C@@H]2CN(C(=O)c3cccc4ccccc34)[C@H](c3ccccc3Br)C[C@@H]21	·	4	2	14	·	·	8	·
O=C(CCC(=O)c1ccccc1)Nc1ccccc1OC(F)F	-2	3	3	-13	i	-1	-10	0
Brc1ccc(-c2n(-c3ccccn3)c3ccccc3[n+]2-c2ccccn2)cc1	-8	-4	-3	?	i	44	5	34
COc1ccc(/C=C/c2nc(-c3ccccc3O)n[nH]2)cc1	44	8	5	·	i	8	·	-10
COc1cccc(-c2cccc(NC(=O)C3CCN(Cc4cnn(C)c4)CC3)c2)c1	-4	1	4	-9	i	-10	-11	-10
O=C(CC(=O)NC1CCCCC1)N/N=C/c1ccccc1F	-6	·	·	2	i	1	·	-16
COc1ccc(CN2C(=O)C(C)=C(C)C2OC)cc1 (configuration not stated)	-12	-2	0	-7	i	2	-16	-3
Cc1nc(Cc2ccccc2)sc1CC#N	·	1	1	9	·	·	-24	·
COc1cccc(NC(=O)CN(C)C(=O)CCN2C(=O)C3CC=CCC3C2=O)c1 (configuration not stated)	·	3	0	-397	·	·	17	·
O=C(CN(Cc1ccccc1C(F)(F)F)C(=O)CNC(=O)c1ccco1)NC1CCCC1	1	-4	5	-58	i	-8	-6	-4
Cc1nn(Cc2ccccc2)c(C)c1NC(=O)CSc1nc(-c2ccccc2)nc2c1cnn2-c1ccccc1	·	6	6	·	i	-4	-16	-3
CCN1C(=O)[C@H]2[C@H]3CN=C(SCc4ccc(C#N)cc4)N3[C@@](CC)(C(=O)OC)[C@H]2C1=O	·	-1	2	18	·	·	-23	·
COc1ccc(COC(=O)C2=C(C)NC(=O)NC2c2ccccc2OC(C)C)cc1 (configuration not stated)	-3	-1	-2	3	i	-6	4	-2
Cc1ccc(C)c(N(C)C(=O)COc2cc(=O)n(C)c3ccccc23)c1	-10	5	5	-5	i	0	-13	6
COc1cc(C(=O)OCC(=O)Nc2ccc(C)cc2)cc(OC)c1OC	-9	3	-1	3	i	2	-20	-10
Cc1c(CCO)c(=O)n(-c2ccccc2)n1S(=O)(=O)c1ccc([N+](=O)[O-])cc1	-5	3	1	16	i	-6	·	7
CC(=O)N1c2ccc(S(=O)(=O)N3CCC(C(=O)NCc4ccc(F)cc4)CC3)cc2CC1C (configuration not stated)	-1	2	-4	-13	i	-11	7	-2
Cc1ccc(NC2CCCN(C(=O)CCCN3CCCCC3=O)C2)cc1C (configuration not stated)	-16	0	-2	5	i	9	-11	7
CC(C)(C)OC(=O)N1CCC(NC(=O)c2[nH]cnc2C(=O)Nc2ccccc2F)CC1	·	4	3	27	·	·	4	·
CCc1nn(-c2cc(Oc3ccccc3)nc(-c3ccccc3)n2)c(N)c1C#N	-6	-5	1	·	i	-10	-20	-12
COc1ccccc1N1CCN(c2nc3ccccc3nc2C(C#N)C(=O)OC(C)C)CC1 (configuration not stated)	8	-8	-11	·	i	14	-33	8
CCCNC(=O)c1onc(CSc2ccc(F)c(F)c2)c1C(=O)NCCC	4	·	·	10	i	·	·	·
O=C(NCC(=O)N(c1ccccc1)C(C(=O)NCC1CCCO1)c1ccccc1)c1cccs1 (configuration not stated)	-18	-3	0	20	i	-3	-3	1
CC(=O)NC(C)C12CC3CC(CC(C(=O)O)(C3)C1)C2 (configuration not stated)	-12	0	0	-65	i	5	16	-2
Cc1csc(=O)n1CCC(=O)OCC(=O)NNC(=O)c1ccc(Br)cc1	·	-1	4	-58	·	·	-16	·
CC(=O)c1nnn(-c2ccc(F)cc2F)c1C	-10	2	1	-15	i	-8	-10	8
CCc1ccc(Cn2nnc(C(=O)Nc3ccc(OC)cc3OC)c2N)cc1	20	-2	-1	-8	i	2	-15	-6
Cc1c(NC(=O)CSc2nnc(-c3ccco3)n2-c2ccccc2)c(=O)n(-c2ccccc2)n1C	-6	4	3	·	i	0	2	6
COc1cc(C(=O)OCCc2c(C)nc3nc[nH]n3c2=O)cc(OC)c1OC	-8	10	1	20	i	0	-5	-12
COC(=O)c1cccc(-c2noc(-c3ccccc3F)n2)c1	0	-6	0	13	·	·	-9	·
Cc1ccc(NC(=O)CCN2CCN(CCO)CC2)cc1	·	3	5	5	·	·	-11	·
CCN1CCCC1CN(Cc1cc2ccc(C)cc2[nH]c1=O)C(=S)Nc1ccc(OC)cc1OC (configuration not stated)	-15	-3	3	-52	i	-4	·	-6
C/C(=N\OCC(=O)OCC(=O)NC(=O)c1ccccc1)c1ccc2c(c1)OCO2	-2	4	3	-14	i	·	-8	·
Clc1ccc(Cn2cc(/C=N/n3cnnc3)c3ccccc32)c(Cl)c1	25	-8	-22	·	i	0	·	4
CCc1[nH]nc2c1C(Cc1ccccc1)C(C#N)=C(N)O2 (configuration not stated)	-6	8	1	-42	i	-4	-21	2
Cc1cccc(NC(=O)c2nc[nH]c2C(=O)N2CCN(C(=O)OC(C)(C)C)CC2)c1	-28	3	5	-2	·	·	-7	·
Cc1nn(CC(=O)N2CCOCC2)c(C)c1[N+](=O)[O-]	21	-2	3	·	i	-4	·	-5
CC(=O)c1ccc(Sc2ccc(C(C)=O)cc2)cc1	0	4	0	-17	i	8	-16	-6
Cc1cc(OCC(=O)OCC(=O)NCCN2C(=O)CSC2=O)ccc1Cl	-11	-4	2	·	·	·	-13	·
Cc1ccc([C@H]2C[C@@H](O)[C@H](n3cc(-c4ccc(F)cc4)nn3)CN2C(=O)C2CCCCC2)cc1	·	1	-3	-35	·	·	13	·

For convenience, some entries already given:
SMILES	CSC inhib	MT1-MMP act inh	MT1-MMP act inh RFP	HIV Env fusion	Rce1 inhib	eIF4H FP inh	Yeast UUG start	PABP FP inh
CCc1ccc(Cn2nnc(C(=O)Nc3ccc(OC)cc3OC)c2N)cc1	20	-2	-1	-8	i	2	-15	-6
Cc1c(NC(=O)CSc2nnc(-c3ccco3)n2-c2ccccc2)c(=O)n(-c2ccccc2)n1C	-6	4	3	·	i	0	2	6
COc1cc(C(=O)OCCc2c(C)nc3nc[nH]n3c2=O)cc(OC)c1OC	-8	10	1	20	i	0	-5	-12
COC(=O)c1cccc(-c2noc(-c3ccccc3F)n2)c1	0	-6	0	13	·	·	-9	·
Cc1ccc(NC(=O)CCN2CCN(CCO)CC2)cc1	·	3	5	5	·	·	-11	·
CCN1CCCC1CN(Cc1cc2ccc(C)cc2[nH]c1=O)C(=S)Nc1ccc(OC)cc1OC (configuration not stated)	-15	-3	3	-52	i	-4	·	-6
C/C(=N\OCC(=O)OCC(=O)NC(=O)c1ccccc1)c1ccc2c(c1)OCO2	-2	4	3	-14	i	·	-8	·
Clc1ccc(Cn2cc(/C=N/n3cnnc3)c3ccccc32)c(Cl)c1	25	-8	-22	·	i	0	·	4
CCc1[nH]nc2c1C(Cc1ccccc1)C(C#N)=C(N)O2 (configuration not stated)	-6	8	1	-42	i	-4	-21	2
Cc1cccc(NC(=O)c2nc[nH]c2C(=O)N2CCN(C(=O)OC(C)(C)C)CC2)c1	-28	3	5	-2	·	·	-7	·
Cc1nn(CC(=O)N2CCOCC2)c(C)c1[N+](=O)[O-]	21	-2	3	·	i	-4	·	-5

(listing goes on)
SMILES	CSC inhib	MT1-MMP act inh	MT1-MMP act inh RFP	HIV Env fusion	Rce1 inhib	eIF4H FP inh	Yeast UUG start	PABP FP inh
O=c1c2sccc2nc(SCc2cc(=O)n3cc(Cl)ccc3n2)n1Cc1ccccn1	13	-3	-1	-17	i	-5	·	9
Cc1cc2nc(CCN(Cc3cccnc3)C(=S)Nc3ccc(F)cc3)[nH]c2cc1C	·	8	-2	·	i	-2	-21	-2
Cc1nnc(SCC2=C(C(=O)O)N3C(=O)C(NC(=O)Cn4nc(C(F)F)c(Cl)c4C)C3SC2)s1 (configuration not stated)	-9	-6	1	-4	i	19	-10	-3
CC[n+]1c(C=C2C=C(C)OC(C)=C2)sc2ccccc21	·	-135	-26	26	i	-23	·	-8
Cc1ccc(S(=O)(=O)Nc2ccc(S(=O)(=O)N3CCOCC3)cc2)cc1[N+](=O)[O-]	-5	2	1	2	i	6	-3	5
COc1ccc(CNC(=O)C2Cc3c(-c4ccccc4Oc4ccccc4)ccnc3O2)cc1OC (configuration not stated)	·	-10	-24	-17	·	·	-14	·
CC(C)(C)OC(=O)N1CCC[C@H]1c1nnc(SCC(=O)Nc2cccc(Cl)c2)o1	-1	3	1	-4	i	-14	·	-3
O=C(OCc1nnc(-c2ccccc2)o1)c1ccc2c(c1)C(=O)N(CCc1ccccc1)C2=O	-6	6	12	-58	i	2	-19	-3
CCOC(=O)c1sc(C)nc1C1CCN(C(=O)OCC)CC1	7	0	0	6	i	1	3	-4
CC(NC(=O)c1ccccc1Br)c1nnc(SCC(=O)NC2=NCCS2)n1C (configuration not stated)	0	-1	0	4	i	-13	·	-2
Cc1csc(SCC(=O)Nc2nccs2)n1	·	-1	1	-13	i	·	·	·
O=C1COc2ccc(C(=O)COC(=O)c3ccc(F)cc3Cl)cc2N1	-15	-1	3	0	·	·	-23	·
O=c1c([N+](=O)[O-])cn(Cc2ccccc2)c(=O)n1Cc1ccccc1	·	-11	-6	-2	·	·	-1	·
Cc1cc(C)n(-c2ccc(C(=O)N3CCN(S(=O)(=O)c4ccc(Br)cc4Cl)CC3)cc2)n1	·	2	-5	7	·	·	-8	·
O=C(CSCc1ccccc1)N1CCN(c2ccccc2)CC1	0	2	3	-7	i	1	·	14
Cc1cc(C)n(C(=O)C2CCCN2S(=O)(=O)c2ccc(Cl)cc2)n1 (configuration not stated)	-5	-9	1	26	i	-3	·	9
O=C(O)c1nn(-c2ccccc2-c2n[nH]c(=O)[nH]c2=O)c(=O)[nH]c1=O	11	·	·	·	i	20	·	25
O=c1[nH]c2cc(Cl)ccc2n(CCNc2ncc(C(F)(F)F)cc2Cl)c1=O	-14	1	5	·	i	12	·	-1
COc1ccc(NC(=O)C(OC(=O)c2cnccn2)c2ccccc2)cc1Cl (configuration not stated)	·	1	1	4	i	-4	-8	-8
CCOC(=O)C1=C(C)NC(=S)NC1c1ccc(C)s1 (configuration not stated)	-16	2	2	-8	i	7	-20	0
NC(=O)C1CCN(C(=O)/C=C/c2ccccc2[N+](=O)[O-])CC1	-14	7	4	6	·	-10	·	10
O=C(CN1C(=O)NC2(CCCCCC2)C1=O)Nc1cccc(F)c1	9	3	2	·	·	·	-24	·
Cc1ccc(C(=O)NNC(=O)Cn2nnc3ccccc32)cc1	·	2	-1	-4	i	-2	-12	6
O=S(=O)(c1ccc(F)cc1)N1CC2CCCN2c2ccc(C(F)(F)F)cc21 (configuration not stated)	35	-3	-2	-17	i	-12	-5	-7
C=CCn1c(SC)nc2sc3c(c2c1=O)CCc1ccccc1-3	-14	-7	-6	-77	i	2	·	-9
CCCS(=O)(=O)N1CCC(C(=O)NCCCOC)CC1	-7	3	8	·	i	0	·	-1

Source: PubChem BioAssay
